HPGD inh: HPGD (human) dehydrogenase inhibition. purified HPGD, NADH fluorescence kinetic, PGE2 substrate. P15428. AID 894. Potency, µM, without a hit: at the highest dose activity change, negative = inhibition, usual class: inhibitors. actives 4.3% (n = 150,000); active = well fitted inhibition curve with a large enough effect (not every such curve was filed as active); inconclusive = small, poorly fitted or top-dose-only effect, or another doubt; inactive = no such curve, though single readings can be large or run the other way;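 also: top concentration of the series not given in the record; plate controls included wells without enzyme; inactives centre near -10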
Target sequence (P15428 whole entry, looked up): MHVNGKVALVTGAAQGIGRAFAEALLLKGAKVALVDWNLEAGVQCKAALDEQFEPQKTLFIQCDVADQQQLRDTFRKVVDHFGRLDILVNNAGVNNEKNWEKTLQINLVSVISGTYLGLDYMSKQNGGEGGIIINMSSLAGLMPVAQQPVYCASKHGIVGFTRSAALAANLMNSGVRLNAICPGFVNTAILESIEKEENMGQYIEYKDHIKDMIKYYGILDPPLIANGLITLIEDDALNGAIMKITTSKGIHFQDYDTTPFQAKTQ
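NADH formation kinetics: reaction with 30 uM PGE2 and 1 mM NAD+ (final), 20 nM enzyme, Tris-HCl pH 8 with Tween 20, after 15 min compound preincubation at room temperature. Fluorescence change, last versus first of five reads.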
* marks the source's active call; other numbers are inactive results; ? = inconclusive. % is scaled to controls: 0 for no effect and ±100 for the full control effect; potency is read from the fitted curve at half-maximal effect. Only part of the results is shown; rates above refer to the full screens.

SMILES	HPGD inh
COc1ccc(OC2C(=O)N(Cc3ccc4c(c3)OCO4)C2c2cccs2)cc1 (configuration not stated)	-16%
CCn1c(SCC(=O)NNC(=S)Nc2ccccc2)nnc1-c1ccc(Cl)cc1	-8%
Cc1noc(C)c1CSc1nc2ccccc2c(=O)n1-c1ccc(F)cc1F	-11%
CCOc1ccc(OCC)c2sc(C)nc12	-17%
CCc1onc(C)c1C(=O)Nc1cc(C)ccc1OC	-8%
CC(C)(C)c1ccc(C(=O)NC(=S)Nc2nc3c(s2)CCCC3)cc1	-13%
CC1=C(C(=O)O)N2C(=O)[C@@H](NC(=O)[C@@H](N)c3ccccc3)[C@@H]2SC1	-29%
CN(C)c1ncc2nc(CCc3ccccc3)c(=O)n(Cc3ccc(F)cc3)c2n1	-25%
O=C(Cn1cnc2c(oc3ccccc32)c1=O)c1ccccc1	-11%
Cc1cc(C(=O)NCc2ccc(C(=O)O)o2)c(C)o1	-5%
CCOC(=O)c1cc2sccc2n1CC(=O)O	-10%
CC(NC(=O)c1cc2c(s1)CCCC2)C(C)(C)C (configuration not stated)	14µM*
Cc1ccc(NS(=O)(=O)c2ccc(OCC(=O)NCc3ccco3)cc2)cc1	1%
Cc1cc(C)nc(Nc2ncc(O)n2-c2ccccc2)n1	-25%
Cc1cc(=O)oc2c1c(C)nn2-c1nn[nH]n1	-1%
COc1cc(OC)c([C@@H]2O[C@H](CO)[C@@H](O)[C@H](O)[C@H]2O)c(OC)c1	-2%
O=C(C1=NN[C@@H]2C(=O)N(c3cccc(C(F)(F)F)c3)C(=O)[C@H]12)C(c1ccccc1)c1ccccc1	-4%
O=C(COC(=O)c1cc(-c2cccnc2)nc2ccccc12)Nc1ccc(F)cc1F	-14%
O=c1c(-c2ccco2)[n+]([O-])c2ccccc2n1OCc1ccccc1	?
CCCCNC(=O)C1CCCN(S(=O)(=O)c2ccc(-n3cnnn3)cc2)C1 (configuration not stated)	-3%
Cc1cccc(Oc2c(C=O)c3ccccc3n2C)c1	-13%
CCOc1cc(-c2cc(-c3ccc(C)cc3)nc(N)c2C#N)ccc1O	-24%
CN(c1ccc(C(=O)O)cc1)S(=O)(=O)c1ccc(Cl)cc1	-6%
Cc1nn(Cc2ccccc2)c(=O)n1N(C)c1ncc(C(F)(F)F)cc1Cl	-1%
CCCCOC(=O)Nc1cccc(C(=O)OCC)c1	?

Continued, starting with the last four of the part before.
SMILES	HPGD inh
CCOc1cc(-c2cc(-c3ccc(C)cc3)nc(N)c2C#N)ccc1O	-24%
CN(c1ccc(C(=O)O)cc1)S(=O)(=O)c1ccc(Cl)cc1	-6%
Cc1nn(Cc2ccccc2)c(=O)n1N(C)c1ncc(C(F)(F)F)cc1Cl	-1%
CCCCOC(=O)Nc1cccc(C(=O)OCC)c1	?
COc1ccc(OC)c(NC(=O)C2CCCCC2C(=O)O)c1 (configuration not stated)	-5%
CC(C)C[C@H]1C(=O)N2CCC[C@@H]2[C@]2(O)O[C@](NC(=O)[C@H]3C=C4c5cccc6[nH]c(Br)c(c56)C[C@H]4N(C)C3)(C(C)C)C(=O)N12	-8%
CC(C)c1c(O)cc(-c2ccncc2)n(-c2ccc(Cl)cc2)c1=O	-19%
CC(=O)N(C[C@@H](C)C(=O)O)c1c(I)cc(I)c(N)c1I	-1%
Cc1cc(C)nc(Nc2n[nH]c(COc3ccc4ccccc4c3)n2)n1	-6%
CC(C(=O)Nc1ccccc1Oc1ccccc1)c1ccccc1 (configuration not stated)	-10%
CCNC(=S)Nc1ccccc1-c1ccccc1	-6%
CCOC(=O)/C(C#N)=C\c1ccc(N2CCN(C)CC2)cc1	-17%
CCOc1cccc(NC(=O)C2CC(=O)N(C)C2)c1 (configuration not stated)	-3%
C=CCNc1nc2c(c(=O)[nH]c(=O)n2C)n1Cc1cccc(C)c1	-18%
Cc1ccc(S(=O)(=O)CCC(=O)OCC(=O)N2CC(=O)Nc3ccccc32)cc1	-20%
CCOc1ccc(OCC)c(NC(=O)C2CCCN(c3nc(C)cc(C)n3)C2)c1 (configuration not stated)	-13%
O=C(NCc1ccc2c(c1)OCO2)c1ccccn1	?
CCOc1ccc(Nc2nc(Cc3nnc(SCC(=O)c4ccc(C)cc4)o3)cs2)cc1	-11%
COc1ccc(N2CCN(C(=O)C(OC(C)=O)c3ccccc3)CC2)cc1 (configuration not stated)	-10%
CC(C)[C@H](NC(=O)NCCc1ccc(Cl)cc1)C(=O)O	-6%
COc1nc(NC23CC4CC(CC(C4)C2)C3)nc(OC)n1	-10%
Oc1ccc(Cn2c(-c3ccc(O)cc3)nc3ccccc32)cc1	-9%
O=C1c2ccccc2C(=O)c2c(NC3CCCCC3)ccc(Nc3ccc(S(=O)(=O)O)cc3)c21	-17%
COC(=O)c1sc(=S)sc1C(=O)OC	-23%
Cc1cc(NC(=O)Cc2ccccc2)nc2c1c(=O)oc1ccccc12	-9%
Cc1[nH]c2ccccc2c1CCNC(=O)c1ccc2c(c1[N+](=O)[O-])C(=O)c1ccccc1C2=O	-7%
CSCCC(CO)NC(=O)OCc1ccccc1 (configuration not stated)	-6%
O=C1Nc2ccccc2C12OCCS2 (configuration not stated)	-5%
Nc1ccnn1Cc1cccs1	-11%
SMILES	HPGD inh
CCOc1ccc2nc(N3CCCC(C(=O)NCCCN4CCOCC4)C3)sc2c1 (configuration not stated)	-5%
COc1ccc(/C=N/N2CCN(C3c4ccccc4-c4ccccc43)CC2)cc1OC	-13%
CC(Cc1cccs1)NC(=O)Nc1cccc(Cl)c1 (configuration not stated)	-23%
CCN(CC)C(=O)CN(C#N)c1nc(NC(C)C)nc(NC(C)C)n1	1%
CC(SCC(=O)Nc1ccc(S(=O)(=O)N2CCCCC2)cc1)C(=O)O (configuration not stated)	-2%
Cc1ccc(Nc2nc(-c3ccc(S(=O)(=O)N4CCOCC4)cc3)cs2)cc1Cl	?
OC(CSc1ccccc1Cl)CN1CCN(c2ccccc2F)CC1 (configuration not stated)	-16%
COc1cc(C)c(CNc2cc(C)cc(C)c2)cc1C	-28%
Cc1sc(NC(=O)CCl)c(C(=O)c2ccccc2)c1C	28µM*
CC(=O)c1cccc(NC(=O)CCCOc2ccc(C)cc2)c1	-15%
N#CCCn1cc(C(CC(=O)c2ccc(Br)cc2)C(=O)O)c2ccccc21 (configuration not stated)	-5%
CC(C)N1CCc2c(sc(NC(=O)c3cc(-c4cccs4)nc4ccccc34)c2C(N)=O)C1	-8%
CCOC(=O)CSc1snnc1-c1ccccc1	-4%
NCCCCCCNS(=O)(=O)c1ccc2c(Cl)cccc2c1	0%
CCOc1ccc(CSC(=N)N)cc1[N+](=O)[O-]	-20%
O=C(c1cc(C2CC2)on1)N1CCOCC1	-12%
O=C(O)CC(CNS(=O)(=O)c1ccccc1)c1ccccc1 (configuration not stated)	-5%
O=c1c2c3c(sc2n(CCN2CCCC2)c(=O)n1Cc1ccco1)CCCCC3	-10%
O=C(c1cc(Cl)ccc1[N+](=O)[O-])n1cnc2ccccc21	-7%
CN(C)CC(O)COc1cc2ccccc2cc1C(=O)N1CCCCC1 (configuration not stated)	28µM*
CCN(CC)CCOc1cccc(C(C)C)c1	5%
O=C(CSc1nncs1)N1c2ccccc2Sc2ccccc21	-8%
Cc1ccc2oc3nc(C)c(C(=O)O)cc3c(=O)c2c1	?
O=C(COc1ccccc1Cl)N1CCN(c2ccc([N+](=O)[O-])c(N3CCOCC3)c2)CC1	-17%
O=C(NC[C@H](O)c1ccccc1)c1ccccc1	-24%
SMILES	HPGD inh
O=C(CN1CCOCC1)Nc1ncc(Cc2ccccc2Cl)s1	-18%
O=C(NC(NC(=S)Nc1c(Cl)cccc1Cl)C(Cl)(Cl)Cl)c1cccc([N+](=O)[O-])c1 (configuration not stated)	-7%
CCN(CC)C(=O)CSc1nc(O)cc(=O)n1CC	-13%
COc1ccc(-c2nnc3sc(-c4ccccn4)nn23)cc1	-17%
O=C(NCCC1=CCCCC1)c1ccc(Cl)c([N+](=O)[O-])c1	-17%
c1coc(Cn2c(SCc3nc4ccccc4[nH]3)nnc2-c2cnccn2)c1	-5%
O=C(c1csnn1)N1CCC2(CC1)CN(Cc1cc(C(F)(F)F)cc(C(F)(F)F)c1)C2	-10%
CC(=O)Nc1c(I)c(C(=O)N[C@H]2[C@@H](O)[C@H](O)[C@H](CO)O[C@@H]2O)c(I)c(N(C)C(C)=O)c1I	1%
CCOC(=O)N1CCN(CC(O)COC2CC(C)CCC2C(C)C)CC1 (configuration not stated)	-1%
O=C(c1ccco1)N1CCN(C(=O)c2ccc(COc3ccc(F)cc3)o2)CC1	-14%
CCN1CCN(C(=O)c2c(-c3c(F)cccc3Cl)noc2C)CC1	-10%
CC1CCN(S(=O)(=O)c2ccc(NC(=O)CSc3nnnn3C)cc2)CC1	-5%
CC(=O)N(CC(=O)Nc1nn(-c2ccccc2)nc1C(N)=O)Cc1ccccc1	?
O=C(O)C1CCCN1C(=O)Nc1ccc(Cl)cc1 (configuration not stated)	-7%
CS(=O)(=O)N1CCN(c2ncccn2)CC1	-14%
CC1(O)c2ccccc2C(=O)N1Cc1ccccc1 (configuration not stated)	-13%
Nc1ncnc2c1nc(Br)n2[C@H]1O[C@H]2COP(=O)(O)O[C@H]2[C@@H]1O	-8%
COc1ccc(/C=C2/SC(c3ccc(C)cc3)=NC2=O)cc1OC	-11%
COc1cccc(C(=O)NC2CCN(CC(=O)Nc3nccs3)CC2)c1	-3%
CCOC(=O)NC(NC(=O)OCC)C(=O)c1ccc(F)cc1	-1%
Cc1cc(C)c2[nH]c(=O)c(CN(Cc3ccco3)C(=O)C3CCCO3)cc2c1 (configuration not stated)	-14%
CCSc1sccc1C1C(C#N)=C(N)N(c2cccnc2)C2=C1C(=O)CC(C)(C)C2 (configuration not stated)	-10%
Nc1nc(CSc2ccccn2)nc(Nc2ccccc2)n1	-10%
CCOC(=O)c1cccc(NC(=O)CSc2nnc(-c3ccoc3C)n2CCOC)c1	-14%
O=C(O)c1cc(=O)c2cc(Cl)ccc2o1	-24%
SMILES	HPGD inh
Cc1ccc(N2C(=O)C3C4CC(=O)C(c5ccccc54)C3C2=O)cc1 (configuration not stated)	-5%
COc1cccc(N2CC(C(=O)Nc3ccc(C(=O)OC(C)C)cc3)CC2=O)c1 (configuration not stated)	0%
CN1CC(=O)NC1=NC(=O)c1cc(F)c(F)cc1Cl	-6%
COc1ccc(NC(=O)N(CCC(C)C)C(C)c2ccccn2)c(OC)c1 (configuration not stated)	-17%
CSc1ccc(/C=C2/C(C)=C(CC(=O)O)c3cc(F)ccc32)cc1	-17%
Cc1cc(C)cc(N(C(=O)C(F)(F)F)C(C(=O)NC2CCCCC2)c2cccs2)c1 (configuration not stated)	-10%
Cc1ccc(N(C(C)C(=O)Nc2ccc(S(=O)(=O)N3CCOCC3)cc2)S(C)(=O)=O)cc1 (configuration not stated)	-1%
Cc1onc(-c2ccccc2Cl)c1C(=O)NCCN1CCOCC1	-17%
Cc1scc(C(=O)NCc2ccco2)c1-c1ccccc1	32µM*
CCOC(=O)CNC(=O)CSc1nnc(Cn2c(=O)sc3ccccc32)n1-c1ccccc1C	-1%
CCC(C)NC(=O)CN(c1cc(Cl)ccc1OC)S(C)(=O)=O (configuration not stated)	0%
CCOC(=O)c1c(NC(=O)CSc2nc3cc(Cl)ccc3s2)sc(C(C)=O)c1C	-7%
CC1SC(c2ccccc2Cl)NC1=O (configuration not stated)	-5%
COCCOC(=O)C1=C(C)Nc2ncnn2C1c1ccc(F)cc1 (configuration not stated)	-16%
Cc1ccccc1NC1=C(Cl)C(=O)OC1OC(=O)c1ccco1 (configuration not stated)	-17%
Clc1ccccc1CSc1nncn1NC/C=C/c1ccccc1	1%
CCOC(=O)C1=C(CSCc2ccccc2)NC(=O)NC1c1cc(C)ccc1C (configuration not stated)	-18%
Cc1ccc(NC(=S)N=Nc2c(O)n(C)c3ccc(S(=O)(=O)N4CCOCC4)cc23)cc1C	-7%
CCN=C1SC(CC(=O)Nc2sc3c(c2C#N)CCCC3)C(=O)N1CC (configuration not stated)	-9%
NC(=O)CSc1nnc(-c2ccc(S(=O)(=O)N3CCOCC3)cc2)n1CC1CCCO1 (configuration not stated)	-22%
COc1ccc(OC)c(NC(=O)CSc2ncccn2)c1	?

Exported as labelled records: 2 of the compounds above
COc1cccc(N2CC(C(=O)Nc3ccc(C(=O)OC(C)C)cc3)CC2=O)c1 (configuration not stated)
  HPGD inh: 0%
CN1CC(=O)NC1=NC(=O)c1cc(F)c(F)cc1Cl
  HPGD inh: -6%

Shown as a hit in HPGD inh, among the entries above:
SMILES	HPGD inh
CC(NC(=O)c1cc2c(s1)CCCC2)C(C)(C)C (configuration not stated)	14µM*
Cc1sc(NC(=O)CCl)c(C(=O)c2ccccc2)c1C	28µM*
CN(C)CC(O)COc1cc2ccccc2cc1C(=O)N1CCCCC1 (configuration not stated)	28µM*
Cc1scc(C(=O)NCc2ccco2)c1-c1ccccc1	32µM*

Screens from PubChem.
